PV pol inh = poliovirus RNA polymerase inhibition; P03300; poliovirus polymerase elongation, fluorescence polarization; hits give low values; % elongation, % (compound at 16.7 µg/mL); hit rate 0.66% among 150,000; in the data active means % elongation below about 90%; further: some results filed as inactive read as strong as hits
Target sequence (P03300 1749-2209 limits assumed): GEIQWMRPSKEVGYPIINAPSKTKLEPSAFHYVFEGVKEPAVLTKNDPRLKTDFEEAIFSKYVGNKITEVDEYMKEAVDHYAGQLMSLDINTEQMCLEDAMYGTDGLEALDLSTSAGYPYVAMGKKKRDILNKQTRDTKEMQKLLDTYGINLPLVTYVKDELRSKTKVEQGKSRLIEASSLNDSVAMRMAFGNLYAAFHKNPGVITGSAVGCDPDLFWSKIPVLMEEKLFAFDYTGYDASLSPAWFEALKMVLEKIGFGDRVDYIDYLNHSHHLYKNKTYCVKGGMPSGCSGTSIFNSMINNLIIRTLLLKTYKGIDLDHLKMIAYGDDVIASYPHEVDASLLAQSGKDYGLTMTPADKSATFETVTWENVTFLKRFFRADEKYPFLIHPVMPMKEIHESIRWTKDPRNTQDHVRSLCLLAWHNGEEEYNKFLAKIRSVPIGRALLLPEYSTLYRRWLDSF
PV pol inh intensity = further read-out of PV pol inh, marked with its call; % elongation; measured here: total intensity read-out; formula for this scale not given here;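 total fluorescence in place of polarization; lower means less elongation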
Active calls of the source: *. Not all compounds are listed. The share of hits here may be higher or lower than overall.

SMILES	PV pol inh	PV pol inh intensity
COc1ccc(NC(=O)C2CCC(CNS(=O)(=O)c3cccs3)CC2)cc1OC (centres undefined)	112.0	107.0
CCOC(=O)c1noc2nc(C)n(Cc3ccc([N+](=O)[O-])cc3)c(=O)c12	102.0	106.0
CCOc1ccc(C(=O)N2CCC(c3nnc(-c4ccccc4OC)o3)CC2)cc1	104.0	104.0
COc1ccc(OC)c(NC(=O)CN2C(=O)CC(c3ccco3)Sc3ccccc32)c1 (centres undefined)	110.0	113.0
Cc1cc(N(CCO)Cc2ccccc2)n2nc(-c3ccc(C(C)(C)C)cc3)nc2n1	107.0	114.0
COc1cc(CNCCSc2nnnn2C)ccc1OCc1c(F)cccc1Cl	106.0	107.0
COc1ccc(C(=O)NCC(c2ccc(N(C)C)cc2)N2CCc3ccccc32)cc1 (centres undefined)	112.0	101.0
CC(NC(=O)Cc1ccc(NC(=O)N2CCSc3ncccc32)cc1)c1ccccc1 (centres undefined)	110.0	108.0
Cc1c(C(=O)Nc2ccc(-n3c(C)nc4ccccc4c3=O)cc2)cccc1[N+](=O)[O-]	108.0	111.0
CCN(CC)S(=O)(=O)c1ccc2c(c1)N(CC(=O)Nc1c(C)cc(C)cc1C)C(=O)CS2	103.0	102.0
COC(=O)CC1Oc2ccc(F)cc2-n2cc(-c3ccc(C)cc3)nc21 (centres undefined)	100.0	104.0
Cc1ccc(Cl)cc1N1CCN(C(=O)c2ccc3c(c2)N(Cc2ccccc2F)C(=O)c2ccccc2S3=O)CC1 (centres undefined)	105.0	110.0
CCC(C)NC(=O)CSc1nc2n[nH]c(C)c2c(=N)n1-c1cc(Cl)ccc1C (centres undefined)	104.0	101.0
COc1ccc(OCC(=O)N2CCN(Cc3ccc(SC)cc3)CC2)cc1	100.0	96.0
CCn1cc(C(=O)NCc2ccccc2)c(=O)c2cc(S(=O)(=O)N3CCCCCC3)ccc21	105.0	107.0
COc1cccc(OCCn2c(-c3ccc(Cl)cc3)nc3ccccc3c2=O)c1	106.0	108.0
Cc1cccc(C(=O)N(Cc2ccccc2F)C2CCS(=O)(=O)C2)c1 (centres undefined)	111.0	112.0
COc1ccc2c(c1)-c1nc(NC(=O)c3ccc(Cl)cc3)sc1CC2	106.0	112.0
CC(=O)c1cccc(Nc2nn(-c3ccc(OC(F)(F)F)cc3)nc2C(C)=O)c1	106.0	107.0
Cc1cc(C)c(NC(=O)CSc2ccc(-c3ccccn3)nn2)c(C)c1	113.0	106.0

Next section; the last 5 above are carried over.
SMILES	PV pol inh	PV pol inh intensity
COc1cccc(OCCn2c(-c3ccc(Cl)cc3)nc3ccccc3c2=O)c1	106.0	108.0
Cc1cccc(C(=O)N(Cc2ccccc2F)C2CCS(=O)(=O)C2)c1 (centres undefined)	111.0	112.0
COc1ccc2c(c1)-c1nc(NC(=O)c3ccc(Cl)cc3)sc1CC2	106.0	112.0
CC(=O)c1cccc(Nc2nn(-c3ccc(OC(F)(F)F)cc3)nc2C(C)=O)c1	106.0	107.0
Cc1cc(C)c(NC(=O)CSc2ccc(-c3ccccn3)nn2)c(C)c1	113.0	106.0
O=C(NCC1(c2ccccc2)CCCC1)C(=O)Nc1cccc(C(F)(F)F)c1	110.0	109.0
Cc1ccc(Cn2cc(CCC(=O)NCc3ccccc3F)c3ccccc32)cc1	109.0	112.0
Cc1cc(C)cc(NS(=O)(=O)c2ccc(N3CCCCS3(=O)=O)cc2)c1	97.0	97.0
O=C(NCCC1=CCCCC1)c1ccc2c(c1)sc1nc(-c3ccc(F)cc3)cn12	107.0	109.0
Cc1cccc(Cn2c(=O)n(CCc3ccccc3)c(=O)c3sc4ccccc4c32)c1	103.0	106.0
CCc1ccccc1Nc1nn2c(=O)c3ccc(C(=O)NC(C)C)cc3nc2s1	104.0	112.0
COc1ccc(CCNC(=O)CCc2c(C)nc3c(c(C)nn3-c3ccc(C)c(C)c3)c2C)cc1OC	108.0	112.0
CCN(c1cccc(C)c1)C(CNS(=O)(=O)c1ccccc1)c1ccccc1 (centres undefined)	108.0	114.0
Cc1cc(=O)n2nc(N3CCC(C(=O)NCc4ccccc4F)CC3)sc2n1	105.0	106.0
COc1ccc(NC(=O)CSc2nnc(-c3ccc(C)cc3)o2)cc1	107.0	112.0
Cc1ccc(NC(=O)C2CCCN2S(=O)(=O)c2cccc3nsnc23)cc1Cl (centres undefined)	108.0	109.0
Cc1cc(C)cc(NC(=O)Cn2c(=O)oc3cc(S(=O)(=O)N4CCCC4)ccc32)c1	105.0	98.0
CCOC(=O)c1ccc(NC(=O)CSc2nc3ncc(Br)c(C)c3[nH]2)cc1	109.0	115.0
CC(C)c1nn2c(=O)cc(COC(=O)c3ccc(NC(=O)CCc4ccccc4)cc3)nc2s1	110.0	106.0
Cc1c(Cl)cccc1NC(=O)c1ccc(C(=O)Nc2cccc(Cl)c2C)cc1	106.0	115.0
COc1cccc2cc(-c3nc(-c4ccccc4F)no3)c(=O)oc12	120.0	107.0
O=C(NCc1ccccc1Cl)c1ccc2oc(=O)n(Cc3ccccc3)c2c1	114.0	112.0
CCOC(=O)C1CCN(C(=O)CCS(=O)(=O)c2cc3c(cc2Cl)NC(=O)CO3)CC1	105.0	110.0
O=C(OCc1cc(=O)n2nc(-c3cccs3)sc2n1)c1cccc(Cl)c1	109.0	109.0
Cc1ccc(Sc2c(C)nn(C(=O)c3ccc(Br)cc3)c2C)cc1	103.0	106.0

Ordered by molar mass (descending): some entries from above
SMILES	PV pol inh	PV pol inh intensity
Cc1cccc(Cn2c(=O)n(CCc3ccccc3)c(=O)c3sc4ccccc4c32)c1	103.0	106.0
Cc1ccc(Cn2cc(CCC(=O)NCc3ccccc3F)c3ccccc32)cc1	109.0	112.0
COc1cccc2cc(-c3nc(-c4ccccc4F)no3)c(=O)oc12	120.0	107.0

Remaining list, next part:
SMILES	PV pol inh	PV pol inh intensity
Cc1cc(C)cc(Nc2ncnc3sc4c(c23)CCCC4)c1	96.0	105.0
Cc1cccc(NC(=O)C2CCN(S(=O)(=O)c3cccc4nsnc34)CC2)c1	107.0	107.0
CCN(CC)C(=O)C1=C(C)Nc2nc3ccccc3n2C1c1ccc(Br)cc1 (centres undefined)	109.0	112.0
Cc1cc(C)cc(C(=O)Nc2c(C(=O)Nc3ccccc3F)oc3ccccc23)c1	101.0	95.0
N#C/C(=C\c1ccc(Cl)cc1)c1nc(-c2cc3c(ccc4ccccc43)oc2=O)cs1	103.0	111.0
COc1ccc(CNCc2c(C(=O)O)c(C)n(Cc3ccccc3C)c2C)cc1OC	108.0	109.0
Cc1cccc(NC(=O)c2oc3ccc(S(=O)(=O)N4CCCCC4)cc3c2C)c1C	100.0	101.0
CN1CCc2c(sc(NC(=O)CSc3ccccc3)c2-c2nc3ccccc3s2)C1	94.0	280.0
O=c1[nH]c2ccc(NCc3ccc(-c4ccc(Br)cc4)o3)cc2[nH]1	106.0	109.0
CC(CNC(=O)c1cc2cc(S(=O)(=O)N3CCCCC3)ccc2n1C)c1ccccc1 (centres undefined)	107.0	107.0
Cc1ccc(CNC(=O)c2cccn2-c2nnc(N3CCCC3)s2)cc1	106.0	114.0
COc1cccc(N2CCN(C(=O)CCSCc3ccccc3F)CC2)c1	115.0	118.0
CCOc1ccc(CNC(=O)CSc2nnc(C)c3c(C)n(-c4ccccc4)nc23)cc1	110.0	110.0
Cc1cc(Br)ccc1NC(=O)CCNS(=O)(=O)c1cccc2nonc12	106.0	107.0
O=S1(=O)c2ccccc2N(Cc2cccc(C(F)(F)F)c2)c2ccccc21	106.0	110.0
CCOc1ccc(CCNC(=O)C2COc3ccccc3C2)cc1OCC (centres undefined)	112.0	109.0
Cc1cc(NC(=O)c2ccccc2F)ccc1-c1nc2ccccc2s1	100.0	109.0
O=S(=O)(c1ccc(Cl)cc1)c1nc(-c2ccccc2Br)oc1NCc1ccccc1	108.0	110.0
CC(C)(C)c1ccc(-c2nnc(-c3ccccc3NC(=O)c3cccc(C(F)(F)F)c3)o2)cc1	106.0	106.0
Cc1ccccc1Cn1c(=O)n(CCCCCC(=O)NCc2ccc3c(c2)OCO3)c(=O)c2sccc21	112.0	115.0
O=C(Nc1ccccc1Cl)N1CCSc2ccccc21	104.0	107.0
Cc1ccc(C)c(NC(=O)CCCn2c(C)c3cnn(-c4ccccc4)c(=O)c3c2C)c1	105.0	105.0
O=C(CN1C(=O)CC(c2ccco2)Sc2ccccc21)Nc1ccc(OC(F)(F)F)cc1 (centres undefined)	104.0	109.0
CCCC(=O)OCc1cnc(C)c2oc(=O)c(C(=O)Nc3ccccc3)cc12	100.0	108.0
COc1cccc(/C=C/c2nc(C#N)c(NCCc3ccc(OC)c(OC)c3)o2)c1	112.0	114.0
CCCC(=O)OCc1cnc(C)c2oc(=O)c(C(=O)Nc3ccc(F)cc3C)cc12	108.0	107.0
Cc1ccc(C(C)C)c(OCC(=O)Nc2ccc3c(c2)nc(CCNC(=O)c2ccco2)n3C)c1	106.0	110.0
CCN(C(=O)Cn1cc(S(=O)(=O)N2CCN(c3ccccc3F)CC2)c2ccccc2c1=O)c1ccc(C)c(C)c1	105.0	102.0
Cc1cccc(C)c1NC(=O)C(NS(=O)(=O)c1cccs1)c1ccccc1 (centres undefined)	103.0	105.0
COc1cc(OC)cc(-c2nc3nc(C)c(CCC(=O)Nc4ccc(C)c(C)c4)c(C)n3n2)c1	100.0	107.0
COc1ccc(CCNc2nc3ccccc3c3nc(-c4cccc(C)c4)nn23)cc1OC	103.0	106.0
Cc1ccc(Cl)cc1NC(=O)C(NS(=O)(=O)c1ccc2c(c1)CCC(=O)N2)c1ccccc1 (centres undefined)	112.0	115.0
COc1cc(CN(CC2CCCO2)C(=O)c2ccc(F)cc2)cc(OC)c1OC (centres undefined)	105.0	106.0
CC12CN3CC(c4ccccc4)(CN(C1)C3c1ccc(O)cc1)C2=O (centres undefined)	109.0	110.0
Cc1ccc(-n2c(=O)c3c(C)c(C)sc3n(CC(=O)c3ccc(Cl)cc3)c2=O)cc1C	103.0	106.0
CC(C)Cc1ccc(S(=O)(=O)N2CCN(Cc3noc(CCC(=O)N4CCCCC4)n3)CC2)cc1	108.0	112.0
Cc1oc(-c2ccc(Cl)cc2)nc1CSc1nc2ncccc2[nH]1	102.0	106.0
CC1CCN(c2oc(-c3cccs3)nc2S(=O)(=O)c2ccc(Cl)cc2)CC1	106.0	108.0
CCCCNC(=O)Cn1nc(N2CCN(c3ccccc3OC)CC2)ccc1=O	106.0	112.0
CC(=O)Nc1ccc(S(=O)(=O)Nc2ccc3c(c2)n(C)c(=O)n3C)c(C)c1	103.0	107.0

The list goes on; the last 2 above are carried over.
SMILES	PV pol inh	PV pol inh intensity
CCCCNC(=O)Cn1nc(N2CCN(c3ccccc3OC)CC2)ccc1=O	106.0	112.0
CC(=O)Nc1ccc(S(=O)(=O)Nc2ccc3c(c2)n(C)c(=O)n3C)c(C)c1	103.0	107.0
Cc1cc(C)c(/C=C/c2onc(C)c2S(=O)(=O)N2CCC(C(=O)Nc3ccc(Cl)cc3C)CC2)c(C)c1	111.0	112.0
CCOC(=O)c1ccc(NC(=O)CN2C(=O)C(C)(C)c3ccccc32)cc1	106.0	103.0
O=C(Nc1ccccc1C(F)(F)F)N1CCC2(CC1)Oc1ccccc1C(=O)N2Cc1ccccc1F	105.0	110.0
O=C(Nc1nc2ccc(F)cc2s1)c1nc(SCc2ccccc2F)ncc1Cl	111.0	114.0
CCn1cc(C(=O)NCCCOC(C)C)c(=O)c2cc(S(=O)(=O)N(C)C3CCCCC3)ccc21	106.0	109.0
COc1ccc(NC(=O)Cn2nc(SC)c(S(=O)(=O)c3ccc(C)cc3)c2N)cc1OC	108.0	115.0
CCN1C(=O)c2ccccc2S(=O)c2ccc(C(=O)N3CCN(c4ccccc4OC)CC3)cc21 (centres undefined)	101.0	99.0
COC(=O)c1ccccc1NC(=O)c1c(NC(=O)c2ccco2)sc2c1CCC(C(C)(C)C)C2 (centres undefined)	101.0	99.0
CCOC(=O)C1=C(CN2CCN(c3ccc(Cl)cc3)CC2)NC(=O)NC1c1ccc(F)cc1 (centres undefined)	108.0	111.0
Cc1ccc(S(=O)(=O)Nc2ccc3nc(-c4ccc(F)cc4)oc3c2)cc1	110.0	107.0
O=C(Cn1c(-c2cccs2)cc2cc(F)ccc21)N1CCCCC1	111.0	107.0
COc1ccccc1C1C(C(=O)Nc2ccccc2)=C(C)Nc2nc(-c3ccccc3)nn21 (centres undefined)	111.0	110.0
CC(C)c1ccc(OCC(=O)Nc2cc(-c3nc4ncccc4o3)ccc2Cl)cc1	101.0	98.0
O=C(NCc1ccc2c(c1)CCN2C(=O)c1ccncc1)c1cccc(F)c1	109.0	114.0
CCOC(=O)c1c(C)[nH]c(C)c1S(=O)(=O)N(C)CC(=O)Nc1cccc(C(F)(F)F)c1	112.0	118.0
Cc1ccc(S(=O)(=O)NCCc2cn3c(C)csc3n2)cc1	115.0	110.0
CCN(c1ccc(OC)cc1)S(=O)(=O)c1nnc(NC(=O)c2ccccc2C)s1	101.0	106.0
COc1ccccc1CNC(=O)c1ccccc1NC(=O)c1nsc2ccccc12	102.0	105.0
CCc1nc2ccc(C(=O)N3CCN(c4cccc(C)c4C)CC3)cc2nc1CC	95.0	96.0
Cc1cccn2c(=O)c3cc(C#N)c(=O)n(-c4nnc(SCc5ccccc5F)s4)c3nc12	107.0	107.0
CCOc1ccccc1NC(=O)c1sc2nc3n(c(=O)c2c1C)CCCCC3	108.0	113.0
O=C(Cn1ccn(-c2ccc(F)c(F)c2)c(=O)c1=O)NCc1ccccc1	107.0	109.0
Cc1cccc(C)c1NC(=O)Cn1c(=O)n(Cc2ccccc2Cl)c(=O)c2cccnc21	107.0	110.0
CC(C)N(Cc1ccccc1)S(=O)(=O)c1ccc(N2CCCCS2(=O)=O)cc1	109.0	105.0
Cc1ccc(C)c(N2CCN(C(=O)Cn3c(-c4cccs4)cc4ccccc43)CC2)c1	115.0	117.0
COc1ccc(-c2nc3scc(CCNS(=O)(=O)c4c(C)cc(C)cc4C)n3n2)cc1OC	109.0	109.0
COc1ccc(S(=O)(=O)NCC(c2ccc(N(C)C)cc2)N2CCc3ccccc32)cc1OC (centres undefined)	107.0	108.0
O=C(CSc1nnc(-c2ccc(F)cc2)o1)N1CCCc2ccccc21	106.0	108.0
Cc1ccc(N(CC(=O)NCCc2ccccc2C)S(=O)(=O)N(C)C)cc1	103.0	108.0
O=C(CN1N=C(c2ccc(Cl)cc2)CCC1=O)NCCc1ccccc1	111.0	110.0
